AID504770 = growth inhibitors of E. coli YBA685 in a screen for V. cholerae RctB (chromosome II replication) inhibitors | E. coli YBA685 rctB-dependent plasmid, OD600 growth, 3 h; hits give low values | z-score (test concentration not listed) | actives 0.27% (n = 130,000) | AID 504770;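 active = z-score under -2 on both plates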;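 note: wells of about 30 µL received 100 nL stock; score is relative to mean and SD of the test wells; the first replicate is given; strong numbers were not always called active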
Ba CapD inh = inhibitors of Bacillus anthracis CapD enzyme | AID 492967 | purified CapD enzyme, fluorescence intensity read-out; hits give low values; some hits fall short of the stated cut | actives 0.23% (n = 140,000) | z-score (concentration not given with the values);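 active = z-score under -4 in either of two replicates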;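 note: stock transfer was 100 nL into about 40 µL; score is relative to mean and spread of the plate; one replicate is shown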
Starred values were filed as active, the others as inactive; . = no result given.

Values run as follows: AID504770, Ba CapD inh
O=C(OCCOCCN=C1NS(=O)(=O)c2ccccc21)c1ccccc1Br
  ., -1.9
O=C(C1CCN(S(=O)(=O)c2cccs2)CC1)N1CCc2ccccc2C1
  -1.1, 0.1
CC1=NNC(=O)C1Oc1ccc(Cl)cc1Cl (stereo not given)
  -0.35, 0.8
O=C(CC1(O)C(=O)Nc2ccccc21)c1ccccn1 (stereo not given)
  ., -0.06
COc1ccc(CCNC(=O)c2cc(C)no2)cc1OC
  0.3, -0.045
O=c1c2ccccc2nnn1CO
  1.9, -0.21
CCOc1ccc(S(=O)(=O)N(C)c2ccc(OCC(=O)NCCCn3ccnc3)cc2)cc1
  0.75, .
C=CCn1c(SC2CCOC2=O)nc2scc(C3CC3)c2c1=O (stereo not given)
  0.05, .
CCn1c(SCC(=O)OCC(=O)N2CCc3ccccc32)nnc1-c1cccs1
  0.2, .
O=C(c1ccc(Cl)cc1)N1CCCOC1
  -0.7, 0.51
CCc1nc2ccccc2c(C(=O)OC2CCCC2=O)c1C (stereo not given)
  -0.15, .
O=C(c1cccs1)N1CCCn2c(SCc3ccccc3)nnc21
  -1.5, -0.035
Cc1ccc(Cl)cc1NC1=NC(=S)N(C(C)c2ccccc2)C12CCCCC2 (stereo not given)
  ., -0.09
Cc1cccc(Nc2ncncc2C#N)c1C
  0.2, -0.42
O=C(CSc1nc2ccccc2s1)NC1CCCCC1
  2.5, -0.43
CC(C)=C1Cc2cc3ccc(=O)oc3cc2O1
  -0.05, 62
COc1ccc(CN2C(=O)c3cccnc3C2=O)cc1S(=O)(=O)N1CC(=O)Nc2ccccc21
  0.45, 0.04
Cc1cc(=O)oc2cc(OCC(O)CNCc3cn4c(C)csc4n3)ccc12 (stereo not given)
  -0.9, .
CC1(C)CC(=O)C2=C(C1)C(c1ccc(-c3cc([N+](=O)[O-])ccc3Cl)o1)Nc1ccc3ccccc3c12 (stereo not given)
  ., -0.36
COc1ccc(-n2c(C)cc(-c3csc(NC(=O)CC(C)(C)C)n3)c2C)cc1
  -0.95, .
Cc1ccc2c(c1)-c1c(cnn1CC(=O)Nc1cccnc1Cl)CO2
  -0.15, 0.11
CCc1ccccc1NC(=O)CN(C)C(=O)Cn1cnc2ccc(Cl)cc2c1=O
  -0.25, .
COc1ccc(N2CCN(C(=O)C3c4ccccc4C(=O)N4CCc5cc(OC)c(OC)cc5C34)CC2)cc1 (stereo not given)
  -1.1, 0.47
CC1CN(C(=O)CC(C)c2ccccc2)CC(C)O1 (stereo not given)
  -0.15, 0.47
Cc1nc2ccc3nc(NC(=O)C4=COCCO4)sc3c2s1
  0.95, 1.4
NCCc1c(C(=O)O)[nH]c2ccc(Br)cc12
  0.9, 0.95
Cc1cc(C(=O)OCC(=O)N2CCCCC2)c(C)n1-c1ccccc1
  -0.8, 0.17
Oc1ccccc1CN(Cc1ccco1)CC(O)COc1ccc(Cl)cc1Cl (stereo not given)
  -0.45, .
CCCCn1cnc2cc(NCc3cc(OC)ccc3OC)ccc21
  -0.4, 55
Nc1ccc(CC2C(=O)Nc3ccccc32)cc1 (stereo not given)
  0.1, 0.43

Not a retest: entries from further up.
Values run as follows: AID504770, Ba CapD inh
CC1CN(C(=O)CC(C)c2ccccc2)CC(C)O1 (stereo not given)
  -0.15, 0.47
Cc1nc2ccc3nc(NC(=O)C4=COCCO4)sc3c2s1
  0.95, 1.4
NCCc1c(C(=O)O)[nH]c2ccc(Br)cc12
  0.9, 0.95
Cc1cc(C(=O)OCC(=O)N2CCCCC2)c(C)n1-c1ccccc1
  -0.8, 0.17
Oc1ccccc1CN(Cc1ccco1)CC(O)COc1ccc(Cl)cc1Cl (stereo not given)
  -0.45, .
CCCCn1cnc2cc(NCc3cc(OC)ccc3OC)ccc21
  -0.4, 55
Nc1ccc(CC2C(=O)Nc3ccccc32)cc1 (stereo not given)
  0.1, 0.43

Other records.
Values run as follows: AID504770, Ba CapD inh
C/C(Nc1ccccc1Oc1ccccc1)=C1/CCOC1=O
  -0.05, -0.62
CNC(=O)Cn1nc(C)n2cccc2c1=O
  -1.5, -0.13
COc1ccc(C(=O)Nc2nc3ccc(F)cc3s2)cc1
  -1.1, 1.2
COc1ccccc1CNC(=O)COc1ccccn1
  0.2, 0.035
c1nc(N2CCCCCC2)c2[nH]cnc2n1
  -1.1, -0.76
CCn1c(=NC(=O)Cc2ccccc2)sc2cc(Br)ccc21
  -0.65, 0.26
CCc1ccc(NC(=O)CSc2nnc(C(C)C)n2CC)cc1
  0.15, .
COc1ccc(S(=O)(=O)Nc2cc(Cl)ccc2Sc2nncn2C)cc1Br
  -0.1, .
COc1ccc(-c2ccc(CNCCN3CCOCC3)o2)cc1Cl
  -0.25, .
CCOC(=O)C1=C(C)N=c2s/c(=C\c3ccc(O)c(Br)c3)c(=O)n2C1c1ccc2c(c1)OCO2 (stereo not given)
  ., -0.32
CCN(CC)c1ncnc(Cl)c1Cc1ccc(OC)cc1
  -0.55, .
CC(C)(C)NC(=O)COc1ccc(CO)cc1
  -0.45, 0.27
COC(=O)[C@@H](Cc1c[nH]c2ccccc12)NC(=O)c1ccc2c(c1)OCO2
  0.45, .
COc1ccc(Nc2nccc(-c3cccc(C#N)c3)n2)cc1
  0.2, 0.32
COc1cccc(CNC(=O)C(NS(=O)(=O)c2cccc3nsnc23)c2ccccc2)c1 (stereo not given)
  -0.6, -0.31
O=C1CSC(c2ccc(Cl)cc2Cl)N1c1ccccn1 (stereo not given)
  ., 0.81
O=C(Nc1cc(Cl)cc(Cl)c1)c1cc(=O)n(Cc2ccccc2)c(=O)[nH]1
  ., 0.32
COc1nc(OC)nc(N2CCN(c3cccc(C(F)(F)F)c3)CC2)n1
  -0.45, 0.17
COc1cc(/C=C2\SC(=O)N=C2N)ccc1O
  1.6, .
CCOC(=O)C1=C(N)OC2=C(C(=O)CC(C)(C)C2)/C1=C1\C=CC=CN1
  ., 0.075
COc1ccccc1N=c1oc2ccc3ccccc3c2cc1-c1nc(-c2ccc(Br)cc2)cs1
  ., 0.4
O=C(N1CCOCC1)N1c2ccccc2CC(N2CCOCC2)c2ccccc21 (stereo not given)
  ., -0.03
COc1ccc2c(CC(=O)OCC(=O)c3cc(C)n(-c4ccc5c(c4)OCO5)c3C)coc2c1
  0.2, .
COc1cc(/C=C2\N=C(c3ccccc3)OC2=O)cc(Br)c1OCc1c(C)no[n+]1[O-]
  -0.3, .
Cn1ccnc1SCC(=O)Nc1ccc2nc(SCc3ccccc3F)sc2c1
  ., -0.06
CCOC(=O)c1ccc(N2C(=O)CC(SCC(=O)Nc3ccc(S(N)(=O)=O)cc3)C2=O)cc1 (stereo not given)
  -0.4, .
O=C(N/C(Cn1cncn1)=N/Nc1ccccc1)Nc1ccc(Cl)cc1
  ., 0.39
Cc1ccc2nc(SCC(=O)NC(C)C)nc(=O)n2c1
  1.9, .
O=C(CSc1cccc[n+]1[O-])c1ccc2c(c1)-c1ccccc1C2
  1.6, 0.06
c1ccc(-c2noc(CSc3nc4ccccc4o3)n2)cc1
  -0.8, -0.32

More entries follow:
Values run as follows: AID504770, Ba CapD inh
O=C(Nc1ccc(OC(F)(F)F)cc1)NC1Cc2ccccc2C1
  ., -0.01
O=C(c1ccc(CSc2ccccn2)o1)N1CCN(C/C=C/c2ccccc2)CC1
  ., -0.49
Cc1sc2nc(SCc3cc(=O)[nH][nH]3)n(Cc3ccco3)c(=O)c2c1C
  -0.2, .
O=C(CSc1ccc2ccccc2c1)Nn1cnnc1
  -1.5, 0.59
O=C1NCCCCC1NS(=O)(=O)c1ccc(F)c(F)c1 (stereo not given)
  ., 0.24
CCCNc1nc(SCc2ccccc2Cl)nc(-c2ccccc2)c1C#N
  ., 9.7
c1ccc(-c2ccc(-c3cs/c(=N\c4ccccn4)n3-c3ccccc3)cc2)cc1
  ., -0.065
CC(C)CN(CC(C)C)c1ncnc2c1cnn2-c1ccc(Cl)cc1
  -0.35, -1
CCc1ccc(N2C(=O)NC(=O)/C(=C\c3ccc(OCC(=O)OC)c(OC)c3)C2=O)cc1
  ., 0
Cc1cc(C)c2c(n1)OC(N1CCOCC1)(C(F)(F)F)CC2=O (stereo not given)
  -0.95, 0.23
NC(=S)CS(=O)(=O)c1cccs1
  ., -0.42
O=C(O)c1cccc(S(=O)(=O)N2Cc3ccccc3C2)c1
  -0.6, -0.06
COc1cccc2cc(-c3csc(Nc4cccc(C(F)(F)F)c4)n3)c(=O)oc12
  0.4, 30
O=C(Nc1ccc(Cn2nnc3ccccc32)cc1)c1ccco1
  0, .
CC1(C)c2ssc(=S)c2-c2ccccc2N1C(=O)c1ccccc1
  ., -0.42
CSC1=NCCN1C(=O)C1CCCCC1
  0.35, .
OCCSc1c(F)c(SCCO)c(SCCO)c(F)c1SCCO
  -0.6, -0.11
O=C(c1ccc2snnc2c1)N1CCCCC1
  -1, -0.53
CC(C)(C)C1CCc2c(sc3c2C(=O)NC(c2c4ccccc4cc4ccccc24)N3)C1 (stereo not given)
  ., 0.74
NC(=O)CSc1nnnn1CC(CC(=O)O)c1ccccc1 (stereo not given)
  0.7, 0.06
CC(=O)c1cn(N(C)c2ncc(C(F)(F)F)cc2Cl)c(=O)[nH]c1=O
  ., 0.06
CCC1CCCCN1C(=O)COC(=O)c1nc(Cl)c(Cl)c(N)c1Cl (stereo not given)
  0.2, .
COc1ccccc1NC(=O)Nc1c(CCN2CCCC2)cccc1OC
  ., -0.02
O=C(Nc1ccc2oc(-c3ccccc3Br)nc2c1)c1ccc2c(c1)OCCO2
  ., 18
O=C(O)c1csc(-c2ccccc2)c1Cc1ccccc1
  1.7, 0.67
CC1CC(C)CN(CCCNC(=O)C2CCCN(c3nnc(N4CCCC4=O)s3)C2)C1 (stereo not given)
  -0.95, -0.34
CCN(CC)C(=Nc1ccccc1)Nc1ccccc1
  1.8, -1.2
Cn1cc(Cl)c(C2NN=C(SCC(=O)Nc3ccccc3)S2)n1 (stereo not given)
  1.5, -1.5
COC(=O)[C@@H](NC(=O)c1ccc2c(c1)S(=O)(=O)c1ccccc1C2=O)C(C)C
  -0.55, .
O=C1NC(=Nc2ccc(F)cc2)S/C1=C/c1ccc(N2CCCC2)o1
  0.8, -0.83

More records.
Values run as follows: AID504770, Ba CapD inh
O=[N+]([O-])c1cccc(CSc2nc(NCc3ccco3)c3ccccc3n2)c1
  ., 0.005
COc1ccccc1C(O)(C(=O)NNc1ccccc1C)c1ccccc1OC
  ., -0.47
COc1cccc(C2C3=C(Nc4c2c(=O)n(C)c(=O)n4C)c2ccccc2C3=O)c1 (stereo not given)
  0.1, -0.41
COc1cc(C2Nc3ccccc3NC3=C2C(=O)CC(c2ccccc2)C3)cc(Br)c1O (stereo not given)
  ., -0.9
O=C(O)C1C(c2ccccc2)C(C(=O)N2CCOCC2)C1c1ccccc1 (stereo not given)
  -0.25, 0.09
COc1ccc(S(=O)(=O)Nc2ccccc2C(=O)NN2CCOCC2)cc1OC
  0, .
Cc1nc(N2CCN(c3cccc(Cl)c3)CC2)c2c3c(sc2n1)CCCC3
  ., 0.23
O=C(c1ccc2n[nH]nc2c1)N(CCCCO)Cc1ccccc1
  ., 0.32
CC(NS(=O)(=O)c1ccc(Br)cc1)C(c1cccs1)N1CCOCC1 (stereo not given)
  0.9, .
N#C/C(=C/c1ccc(Sc2nc3ccccc3[nH]2)o1)C(=O)N1CCOCC1
  -1.1, -0.61
CCOC(=O)N1CCC(NC(=O)CCc2nc(C3=CCN(C)CC3)no2)CC1
  0.3, 1.1
CN(C1CCCCC1)S(=O)(=O)c1ccccc1NC(=O)c1ccc[nH]c1=O
  -0.65, .
COc1cn(-c2ccccc2)nc1C(=O)OC(C)C(N)=O (stereo not given)
  -0.05, .
O=C1C(c2ccncc2)N(CCC2=CCCCC2)C(=O)CN1C1CCCCC1 (stereo not given)
  0.1, -0.49
CC1NC(=S)N2C(C)NC(=S)N12 (stereo not given)
  ., 0.24
CCCN1CCN(c2ncnc3sc(C(=O)Nc4cc([N+](=O)[O-])ccc4OC)c(C)c23)CC1
  ., -0.35
CCSc1sc(C#N)c2c1C(=O)CC(C)(C)C2
  ., -0.095
COc1ccccc1NC(=O)Cn1c(=O)c(N(C)C)c(N)n(C)c1=O
  -0.15, .
COc1cc(/C=C2/SC(=S)N(CCC(=O)NC34CC5CC(CC(C5)C3)C4)C2=O)cc(OC)c1OC
  ., -0.1
COc1ccc(NC(=O)CN(C)C(=O)c2ccc3c(c2)NC(=O)CS3)cc1
  -0.5, .
COc1ccc(N(C(=O)C(C)C)S(=O)(=O)c2cccs2)cc1
  -0.6, -7*
Cc1cc(C)c(C#N)c(SCCC(=O)Nc2nc(-c3ccccc3)ns2)n1
  0.3, 0.18
COc1ccccc1/C=C1\N=C(c2ccc(OC)c(OC)c2)N(c2ccc(Cl)c(Cl)c2)C1=O
  ., -0.45
CCOC(=O)C1=C(NC(=S)Nc2ccccc2)CC2=C1CCCC2
  0.15, 0.94
CNS(=O)(=O)c1cn(CC(=O)Nc2ccccc2)cc1S(=O)(=O)NC
  0.6, 0.18
O=C(Cc1cccs1)N/N=C/c1ccc(C(=O)O)cc1
  -1, 0.005
COC(=O)C1=NNC2C(=O)N(c3ccc(C)c(C)c3)C(=O)C12 (stereo not given)
  ., 0.055
Cn1c(Nc2ccccc2)cc(=O)n(C)c1=O
  ., 0.94
C=CCNC(=O)c1ccc(NC2=NC3CS(=O)(=O)CC3S2)cc1 (stereo not given)
  -0.5, 0.4
O=C(O)C1CC1c1ccc(Br)cc1 (stereo not given)
  -1.1, -1
Cc1ccc(S(=O)(=O)Nc2ccc3oc4c(c3c2)C(=O)CCC4)c(C)c1
  ., -1

Bioassay records (PubChem)
